# Assay outcomes as filed in PubChem BioAssay.
# Mtb hypoxia rep: reduces hypoxia-regulated biosensor signal in M. tuberculosis | 0.1% of 300,000 active | M. tuberculosis hypoxia-regulated fluorescent reporter, fluorescence | fluorescence inhibition, % (test concentration not listed) | AID 1159583;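 active = 35 to 45% if threefold the growth effect, above 45% if 1.5-fold the growth effect; inactive = the rest, general growth blockers included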;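 note: wells of about 50 µL received 100 nL stock; 0% = vehicle wells and 100% = reference inhibitor wells; whole bacteria with a GFP reporter of the hypoxia response; strong numbers were not always called active; many hits fall short of the cut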
# BJeLR lethal: kills HRASV12-expressing BJeLR cells. BJeLR (HRASV12) viability, CellTiter-Glo ATP luminescence, 48 h; reference of the scale not given here. AID 1554. inhibition, % (concentration not given with the values). 0.17% of 300,000 active;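 active = replicate mean above 50%; inconclusive = above 50% but judged a plate artefact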;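 note: 50 nL library stock added to about 25 µL; numbers are from one replicate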
# Autofluor counter: compound fluorescence in toxin protease inhibitor counterscreen. 3.1% of 360,000 active. fluorescence intensity (test concentration not listed). compound autofluorescence counterscreen, microsphere flow cytometry; hits give high values;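 active = at least 3 SD above the mean of all compounds, about 16000 in these data; inconclusive = too few beads counted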;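 note: 100 nL of 1 mM stock went into each well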
# RN4220 kill: S. aureus RN4220 growth inhibition; 0.33% of 330,000 active; OD600, 16 h; inhibition, % (concentration not given with the values);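 active = z-score of -3 or lower and OD600 up to 0.18 on both plates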;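 note: plate controls were untreated cells for no effect and reference antibiotic for full effect; stock transfer was 100 nL into about 80 µL; one replicate is shown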
# PrP 5UTR inh: inhibition of PrP 5' UTR reporter expression. cell-based PrP 5' UTR mRNA reporter, plate reader. inhibition, % (concentration not given with the values). 0.35% of 340,000 active;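 active = every replicate at 50% or more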;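 note: 0 = median of the neutral control wells; tested in H4 reporter cells; numbers are from one replicate; inactives centre near -14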
# ugtP null kill: kills S. aureus RN4220 lacking UgtP; S. aureus RN4220 ugtP deletion, OD600 growth, 16 h; some inactives read as strong as hits; growth inhibition, % (concentration not given with the values); 0.54% of 330,000 active;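 active = z-score under -3 and OD600 up to 0.15 on both plates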;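 note: plate controls were untreated wells for no effect and antibiotic for full effect; wells of about 80 µL received 100 nL stock; the first replicate is given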
# Mtb hypoxia rep growth: also measured in Mtb hypoxia rep; calls as there; growth inhibition, %; measured here: M. tuberculosis growth (absorbance);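 0% = vehicle and 100% = reference antibiotic; read after six days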
# Starred values were filed as active, the others as inactive; ? = inconclusive; · = not tested or not shown; & = joins results of further samples.
SMILES,Mtb hypoxia rep,Mtb hypoxia rep growth,BJeLR lethal,Autofluor counter,RN4220 kill,PrP 5UTR inh,ugtP null kill
CC(NCc1ccc2c(c1)OCO2)C(=O)N1CCc2ccccc21 (centres undefined),18,1,8,2514,8.4,-2,3
COc1ccccc1N1CCN(N=Cc2cccc(O)c2)CC1,10,1,·,·,7.6,·,7
O=C(Nc1ccc(N2CCCC2)c(S(=O)(=O)Nc2cccc(C(F)(F)F)c2)c1)c1cccs1,-6,1,-7,2162,-5.1,-25,-27
COc1ccc(-c2cc(-c3ccccc3)[n+](C)c(-c3ccccc3)c2)cc1,23,19,10,4769,-0.9,-28,-1
CCOc1cc(C(=O)N2CCCC2)cc(OCC)c1OCC,·,·,-3,3674,-3.0,-29,13
CCc1cc2c3c([nH]c2cc1S(=O)(=O)N1CCC2(CC1)OCCO2)CCCC3=O,1,-2,14,5336,1.7,-11,-1
O=C(CSCc1ccccc1Br)NC1CC1,10,4,-6,2252,1.4,-7,4
Cc1ccc(N2C(=O)[C@@H]3C(C(=O)CN4C(=O)c5ccccc5C4=O)=NN[C@@H]3C2=O)c(C)c1,18,3,0,?,3.3,·,5
COc1cccc(CN(C)S(=O)(=O)c2ccc3c(c2)OCCO3)c1,-1,-4,·,8691,2.9,-35,2
Brc1ccccc1-n1nnc(-c2cccnc2)n1,16,12,-14,3833,3.9,-20,2
CC(C)[C@@H](C(=O)NCC1CCCO1)N1C(=O)N2CCc3c([nH]c4ccccc34)[C@@]2(C)C1=O (some centres undefined),·,·,1,5432,0.0,-23,8
CCN(CC(=O)N1CCN(Cc2ccccc2)CC1)S(=O)(=O)c1ccc(C)cc1,10,10,-6,?,2.5,-4,4
O=C(NCCCO)C(=O)Nc1ccc2c(c1)N(S(=O)(=O)c1cccs1)CCC2,4,4,0,·,3.1,-7,1
N/C(Cc1ccc(Cl)cc1Cl)=N\OC(=O)Cc1cccs1,11,3,12,2476,9.6,-15,11
Cc1ccc(C)c(NC(=O)c2ccc[n+](Cc3ccc([N+](=O)[O-])cc3)c2)c1,10,3,5,4401,6.7,-4,-5

# Brought forward from above: two compounds, then new ones.
SMILES,Mtb hypoxia rep,Mtb hypoxia rep growth,BJeLR lethal,Autofluor counter,RN4220 kill,PrP 5UTR inh,ugtP null kill
N/C(Cc1ccc(Cl)cc1Cl)=N\OC(=O)Cc1cccs1,11,3,12,2476,9.6,-15,11
Cc1ccc(C)c(NC(=O)c2ccc[n+](Cc3ccc([N+](=O)[O-])cc3)c2)c1,10,3,5,4401,6.7,-4,-5
NS(=O)(=O)c1ccc(NC(=O)CSc2nc3ccccc3n2-c2ccccc2)cc1,2,-1,-10,2049,3.5,2,7
O=C1CC(N2CCCCCC2)C(=O)N1c1ccc2c(c1)OCO2 (centres undefined),5,4,-2,5969,20,-38,14
Cc1ccc(-c2nnnn2C2CC(=NNC(N)=S)C3OCC2O3)cc1 (centres undefined),5,18,·,·,2.8,·,4
Cn1c(Cc2nc3ccccc3n2C)nc2ccccc21,·,·,-6,4170,·,-19,·
COc1ccc(C(=O)Nc2ccc(Cl)cc2C(=O)N2CCOCC2)cc1,1,9,7,5090,0.5,-15,6
C=CCNC(=O)CC(=O)NN=Cc1cccc(Br)c1,-1,6,·,·,4.1,·,15
COC(=O)C1=C(c2ccc(F)cc2F)CC2CCC1N2C(=O)NCCNC(C)=O (centres undefined),6,12,·,·,0.7,·,1
CC(OC(=O)CNC(=O)COc1ccccc1)C(=O)N(C)Cc1ccccc1 (centres undefined),-5,0,4,4559,2.1,-21,3
COC(=O)NNC(=S)NCc1ccc(C)cc1,9,3,3,2575,2.4,-8,1
CC(C)N(C(=O)Cn1c(SCC(=O)NC2CC2)nc2ccccc21)C(C)C,7,8,-7,3619,-0.6,-11,6
COc1ccc(CN2CCOCCOCCOCC2)cc1,13,10,-7,4114,2.7,-11,-2
CCc1ccc2oc(-c3cc(N)ccc3Cl)nc2c1,·,·,3,3092,3.8,-18,13
Cc1ccc(CNC(=O)C2CCC(=O)N(CCc3cccc(F)c3)C2)s1 (centres undefined),-2,-10,10,?,6.7,-9,16
COc1ccc(C(=O)O/N=C(/c2ccccc2)c2ccncc2)cc1,·,·,8,3962,·,-50,·
CCOCC(=O)Nc1nnc(SCCOC)s1,10,14,2,9312,2.5,-22,0

# An excerpt of these results, tab-delimited:
SMILES	Mtb hypoxia rep	Mtb hypoxia rep growth	BJeLR lethal	Autofluor counter	RN4220 kill	PrP 5UTR inh	ugtP null kill
O=C1CC(N2CCCCCC2)C(=O)N1c1ccc2c(c1)OCO2 (centres undefined)	5	4	-2	5969	20	-38	14
COC(=O)NNC(=S)NCc1ccc(C)cc1	9	3	3	2575	2.4	-8	1
NS(=O)(=O)c1ccc(NC(=O)CSc2nc3ccccc3n2-c2ccccc2)cc1	2	-1	-10	2049	3.5	2	7
CC(C)N(C(=O)Cn1c(SCC(=O)NC2CC2)nc2ccccc21)C(C)C	7	8	-7	3619	-0.6	-11	6
Cn1c(Cc2nc3ccccc3n2C)nc2ccccc21	·	·	-6	4170	·	-19	·

# By substructure, those above with bromine.
SMILES,Mtb hypoxia rep,Mtb hypoxia rep growth,BJeLR lethal,Autofluor counter,RN4220 kill,PrP 5UTR inh,ugtP null kill
O=C(CSCc1ccccc1Br)NC1CC1,10,4,-6,2252,1.4,-7,4
Brc1ccccc1-n1nnc(-c2cccnc2)n1,16,12,-14,3833,3.9,-20,2
C=CCNC(=O)CC(=O)NN=Cc1cccc(Br)c1,-1,6,·,·,4.1,·,15

# Next section:
SMILES,Mtb hypoxia rep,Mtb hypoxia rep growth,BJeLR lethal,Autofluor counter,RN4220 kill,PrP 5UTR inh,ugtP null kill
CC1CCCCC1NC(=O)CC1Oc2ccccc2NC1=O (centres undefined),·,·,-1,4065,-1.0,-10,6
N#CCc1c(C#N)c(N)nc(N2CCOCC2)c1C#N,3,8,2,3984,1.5,7,-9
CCc1noc(C)c1C(=O)Nc1ccccc1C(C)(C)C,11,0,0,5979,2.4,-13,5
O=C1C(=O)N(CCN2CCOCC2)C(c2ccc(Cl)cc2)/C1=C(/O)c1ccc(S(=O)(=O)N2CCOCC2)cc1 (centres undefined),-1,13,11,3396,-0.7,-18,-1
O=C(NC1CC1)C1=CC(c2c[nH]c3ccccc23)CC(OCc2ccc(CO)cc2)O1 (centres undefined),-1&-6,9&2,·,·,2.3&6.8,·,-1&5
CC(C)(C)NC(=O)CN(C(=O)CCN1CCCc2ccccc21)C(C)(C)C,4,7,6,20626*,2.9,-25,-3
CSc1cccc(CN2CCCC(CNC(=O)c3ccco3)C2)c1 (centres undefined),-9,-10,-2,5947,2.1,-2,4
Cc1nnsc1C(=O)NNC(=O)c1ccc(C(F)(F)F)cc1,5,12,1,5254,3.3,-23,3
CCC1C(=O)C(C)(C)C(=O)OC1c1ccc([N+](=O)[O-])cc1 (centres undefined),·,·,-5,3544,·,-12,·
CC(=O)Nc1cccc(/C(C)=N/N2C(C)CCCC2C)c1 (centres undefined),·,·,-4,3270,·,-1,·
CCOC(=O)CNC(=O)N1CCCC(C(=O)c2cc(C)c(OC)c(C)c2)C1 (centres undefined),7,-6,-4,4078,3.7,-33,7
O=C1CCN(Cc2ccccc2)CCN1[C@H](CO)c1ccccc1,·,·,-1,2860,·,-17,·
CCc1nc2oc3ccccc3c(=O)c2c(=O)n1Cc1ccccc1,3,0,-9,3211,3.8,-13,-5
COc1cc(C=NNc2nc(Nc3ccccc3)nc(N3CCCCC3)n2)ccc1OCC(=O)O,-9,9,·,·,12,·,2
COc1cc2c(-c3ccc4cc[nH]c4c3)c(-c3ccsc3)oc(=O)c2cc1OC,1,1,·,2994,-1.5,-8,11
Cc1cccc(CSC2=NCCN2C(=O)c2ccc(Br)o2)c1,·,·,1,6521,3.8,-5,12
COc1cc(C=O)ccc1OS(=O)(=O)c1ccc(NC(C)=O)cc1,7,8,3,10580,1.2,-19,6
N#Cc1sc2nccc(Nc3ccccc3)c2c1N,7,-3,8,·,3.4,·,-1
CCc1ccc2nc(SCC(=O)N3CCCCC3)c(C#N)cc2c1,·,·,-3,4494,-0.4,-28,6
COCCNC(=O)c1noc2c1CCc1cc(OC)ccc1-2,10,14,-7,9948,0.2,-45,2
COc1ccccc1CNC(=O)c1ccc2c(c1)OCO2,-1,1,1,3077,9.2,-12,8
CN(C)CCC(C(=O)c1ccccc1)c1cccnc1 (centres undefined),22,12,·,4070,4.3,2,7
COc1ccc(C(=O)Nc2cccc(NC(=O)c3cccs3)c2)cc1OC,16,3,8,4187,3.7,-25,-1
O=[N+]([O-])c1ccccc1/C=N/n1c(C(F)(F)F)n[nH]c1=S,·,·,-6,4541,·,-19,·
FC(F)(F)c1cc(-c2ccccn2)nc2cc(-c3ccccc3)nn12,15,-4,8,4214,-0.2,-14,14
Cc1noc(C)c1CSCC(=O)Nc1nc(-c2ccc(F)c(F)c2)cs1,-9,3,7,?,-1.0,-15,-9
c1ccc(-n2cnc3cc(NCc4ccco4)ccc32)cc1,14,8,2,4417,4.6,-120,6
CN(C)C(CNC(C(=O)Nc1ccc(F)cc1)c1ccccc1)c1ccccc1 (centres undefined),17,4,-9,3995,-0.8,-28,-6
C=CCn1c(SCC(=O)C(C)(C)C)nnc1-c1ccccn1,8,7,1,20695*,-2.1,-18,-3
NC(Cc1ccc([N+](=O)[O-])cc1)=NOC(=O)c1ccc(Br)cc1,9,5,·,·,-1.9,·,4

# Retrieved one by one from above (two):
SMILES,Mtb hypoxia rep,Mtb hypoxia rep growth,BJeLR lethal,Autofluor counter,RN4220 kill,PrP 5UTR inh,ugtP null kill
COc1ccccc1CNC(=O)c1ccc2c(c1)OCO2,-1,1,1,3077,9.2,-12,8
CCc1ccc2nc(SCC(=O)N3CCCCC3)c(C#N)cc2c1,·,·,-3,4494,-0.4,-28,6

# (further entries)
SMILES,Mtb hypoxia rep,Mtb hypoxia rep growth,BJeLR lethal,Autofluor counter,RN4220 kill,PrP 5UTR inh,ugtP null kill
Cc1cccc(C(=O)N/N=C/c2ccc[nH]2)c1,·,·,-1,1910,·,-29,·
N#Cc1nc(-c2ccccc2F)oc1N1CCN(C(=O)c2ccco2)CC1,12,6,3,5766,7.2,-24,8
CCc1nc(SCC(=O)Nc2ccccc2OC)n[nH]1,-4,3,-6,3562,2.4,-14,-4
COc1ccc(C(=O)ON=Cc2c(C(F)(F)F)nn(C)c2SCc2ccccc2Cl)cc1,6,-3,·,·,-4.0,·,1
O=C(CCN1C(=O)C2C3C=CC(C3)C2C1=O)N1CCN(c2ccc([N+](=O)[O-])cc2)CC1 (centres undefined),-10,7,1,2048,-1.0,-39,4
CCOC(=O)CSc1nnc(-c2cccs2)n1-c1ccccc1,·,·,-2,4126,0.8,-9,8
Cc1ccc(CNS(=O)(=O)c2cc3c(cc2C)NC(=O)CO3)cc1,-6,4,0,6141,7.9,-8,-1
CN(C(=O)c1ccccc1)C1(C)CCS(=O)(=O)C1 (centres undefined),15,6,-11,3189,-11,-43,-2
CCc1ccc(S(=O)(=O)Nc2ccc(C)c(NS(C)(=O)=O)c2)cc1,-2,7,-1,4644,3.9,-19,4
COc1ccc(C=NS(=O)(=O)c2cccs2)cc1,4,9,·,·,0.7,·,-5
CCCC(=O)N1CCN(c2ccc(NC(=S)NC(=O)CC)cc2)CC1,·,·,-9,15052,5.2,-24,63
CCOC(=O)/C(C#N)=C/c1cccc(F)c1,-1,4,0,3328,2.5,-4,6

# This is a random part of the collection; any-hit rate near 4%.
